# A647 fluor: compound autofluorescence in A647 spectral region | Compound fluorescence, A647 channel (570/671 nm), Tris buffer | max dye-equivalent concentration, M | 59,000 tested, under 10 active | AID 592; active means above 1 µM dye equivalent; inconclusive means 0.1 to 1 µM; inactive means 0.1 µM or less;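 note: values scaled relative to a standard on each plate; highest value over a series up to 38 µM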
#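 Spectral profiling of library compounds in pH 8.0 Tris: 15 min room-temperature incubation, single ex/em pair (570/671 nm), response normalized to Alexa 647 equivalents.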
# Resorufin fluor: resorufin region autofluorescence; Compound fluorescence, resorufin region 547/598 nm, buffer; stronger effect = higher value; max dye-equivalent concentration, M; 0.04% of 59,000 active; active = above 10 nM dye equivalent; inconclusive = 1 to 10 nM; inactive = 1 nM or less; a few of its hits are not listed in these tables; note: highest value over a series up to 38 µM
#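 Read-out: intrinsic compound fluorescence at ex 547/em 598 nm after 15 min at RT in pH 8.0 Tris (100 mM). Values expressed as resorufin-equivalent concentration from per-plate standard series.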
# A488 autofl: A488 region autofluorescence; compound autofluorescence, A488 spectral region, dye equivalency; stronger effect = higher value; max dye equivalency, M; 0.1% of 59,000 active; AID 591; active = above 10 nM dye equivalent; inconclusive = 1 to 10 nM; inactive = 1 nM or less; about half of its hits are not listed in these tables;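 note: highest value over a series up to 38 µM; compound alone in buffer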
#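 Compounds pin-transferred into 100 mM Tris buffer, pH 8.0, incubated 15 min at room temperature, then imaged with 480 nm excitation/540 nm emission filters. Fluorescence converted to Alexa 488 dye-equivalent concentration via an on-plate six-point A488 standard curve.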
# TSHR agonist: agonists of human thyroid stimulating hormone receptor; Potency, µM (titrated, usually from 57.1 µM), for inactives: at the top dose activation, actives largely listed as activators; 0.48% of 73,000 active; HEK293-CNG-TSHR cells (CNG channel as cAMP sensor), membrane potential dye, cAMP; P16473; active = well fitted activation curve of enough size with the parental cells flat; inconclusive = any curve in the parental cells; inactive = parental cells flat and receptor cells flat or falling; note: potency is the fitted concentration of half-maximal effect; % of control where 0% means no effect; weak receptor curves with flat parental cells got no call and are not listed
# Target sequence (P16473 whole entry, looked up): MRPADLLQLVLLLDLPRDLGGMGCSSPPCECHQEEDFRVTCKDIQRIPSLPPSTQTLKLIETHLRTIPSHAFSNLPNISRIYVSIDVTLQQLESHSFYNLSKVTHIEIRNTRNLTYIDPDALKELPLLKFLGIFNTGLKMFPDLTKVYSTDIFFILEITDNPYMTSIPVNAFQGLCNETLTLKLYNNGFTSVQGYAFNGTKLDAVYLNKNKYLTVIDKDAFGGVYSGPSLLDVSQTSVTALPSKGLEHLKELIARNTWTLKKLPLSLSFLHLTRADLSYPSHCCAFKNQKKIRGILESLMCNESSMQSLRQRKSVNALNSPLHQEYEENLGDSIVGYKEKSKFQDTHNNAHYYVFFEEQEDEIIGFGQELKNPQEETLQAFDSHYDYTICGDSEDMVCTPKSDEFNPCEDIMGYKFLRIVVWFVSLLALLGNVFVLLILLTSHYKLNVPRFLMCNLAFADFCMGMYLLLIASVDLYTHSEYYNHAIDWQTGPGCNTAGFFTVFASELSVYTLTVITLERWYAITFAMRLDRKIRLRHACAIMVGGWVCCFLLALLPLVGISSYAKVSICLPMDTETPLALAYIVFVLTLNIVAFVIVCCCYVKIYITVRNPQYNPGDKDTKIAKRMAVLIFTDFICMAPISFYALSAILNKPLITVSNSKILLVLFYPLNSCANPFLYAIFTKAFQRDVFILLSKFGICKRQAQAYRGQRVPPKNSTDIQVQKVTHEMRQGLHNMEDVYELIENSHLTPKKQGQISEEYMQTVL
#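 HEK 293 cells stably expressing TSHR and a modified CNG channel, with CNG-only parental cells as counterscreen, were preloaded 60 min at room temperature with membrane potential dye containing 100 uM RO 20-1724. Compound exposure was 30 min, and depolarization was read as fluorescence at 590 nm.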
# AID923: qHTS Assay for Allosteric/Competitive Inhibitors of Caspase-1: Spectroscopic Profiling in AFC Spectral Region; 1.1% of 75,000 active; AID 923, 2007; compound fluorescence, AFC spectral region (405/520 nm); almost no hit is shown here; Potency, µM (doses to about 57.5 µM), inactives show at the highest dose fluorescence increase, usual class: activators; active = well fitted activation curve with a large enough effect; inconclusive = small, poorly fitted or top-dose-only effect;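 note: potency is the fitted concentration of half-maximal effect; 0% is about no effect; scaled to a free AFC standard on each plate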
#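 Baseline compound fluorescence (AFC region, 405 nm ex/520 nm em) taken from the intercept of kinetic reads with 50 nM caspase-1 and 5 uM Ac-WEHD-AFC; normalized to an on-plate AFC standard curve; compounds titrated up to 57 uM.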
# Numbers without * were called inactive; i = inactive; ? = inconclusive; · = not tested or not shown; & = joins results of further samples; [ ] = another dose, or the depositor's remark. An excerpt; rates above refer to the full screens.
SMILES,A647 fluor,Resorufin fluor,A488 autofl,TSHR agonist,AID923
COc1ccc(S(=O)(=O)N(C)CC(=O)NC2CCCCC2)cc1OC,1e-08,i,i,?,0.0%
CCCCN1CC(C(=O)NC2CCCCC2)CC1=O (stereo not given),3.1e-09,i,i,1%,0.5%
O=C(O)C1C2C=CC3(CN(Cc4ccncc4)C(=O)C13)O2 (stereo not given),4.9e-08,i,i,-1%,-0.5%
CCn1c(=O)[nH]c2ccccc21,·,·,·,14%,1.3%
O=C(O)c1ccc(Cl)cc1NC(=O)C1CCCO1 (stereo not given),2.2e-08,i,i,?,-0.1%
COc1ccc(OC)c2[nH]c(=O)c(CCNC(=O)COc3ccccc3)cc12,1e-09,i,i,6%,2.6%
O=C(c1ccco1)N1CCC2(CC1)CN(c1cccc(-c3ccccc3)c1)C2,1e-09,i,i,2%,-1.6%
COc1ccc(-c2cc(C(F)(F)F)nc(SCCC(=O)NCc3ccco3)n2)cc1,1e-09,i,i,?,-2.8%
COc1ccc(-c2nc(-c3ccccc3)no2)c(OC)c1,7.4e-09,i,i,9%,0.2%
CC(C)c1nc2oc3c(=O)[nH]cnc3c2c2c1CCC2,4.6e-08,i,i,6%,-0.8%
CCC(=O)N1CC23C=CC(CC2CC12CCCCC2)O3 (stereo not given),·,·,·,9%[11.4 µM],-0.8%
CC1(C(=O)NCCCNc2ncc(C(F)(F)F)cc2Cl)C=CC2(CCCCC2)N1C(=O)c1ccccc1 (stereo not given),·,·,·,-1%,1.3%
Cn1c(SCc2nnc(-c3ccccc3Br)o2)nc2sc3c(c2c1=O)CCC3,2.6e-09,i,i,?,1.8%
COC(=O)c1[nH]c2ccc(Cl)cc2c1NC(=O)C1CC1,6.3e-08,i,i,·,·
C=CCn1c(=O)c(C(=O)Nc2nnc(C)s2)c(O)c2ccccc21,1.7e-08,i,i,6%,-1.0%
CCCCNC(=O)Nc1ccc(Br)cn1,3.5e-08,i,i,2%,-2.1%
O=C(CC1C(=O)OCN1C(=O)OCc1ccccc1)OCC(=O)c1ccccc1 (stereo not given),1e-09,i,i,5%,0.2%
O=C1N[C@@H](Cc2cnc[nH]2)C(=O)N2CCC[C@@H]12,2.3e-08,i,i,·,·
COC(=O)Cc1c(C)nc2nc(NCc3ccc(Cl)cc3)[nH]n2c1=O,4e-09,i,i,6%,-1.3%
CN1CCN(CC(=O)Nc2ccc(Oc3ccccc3)cc2)CC1,1e-09,i,i,-15%,-1.8%
CC(=O)O[C@H]1C(=O)[C@@]2(C)[C@H]([C@H](OC(=O)c3ccccc3)[C@]3(O)C[C@H](OC(=O)[C@H](O)[C@@H](NC(=O)c4ccccc4)c4ccccc4)C(C)=C1C3(C)C)[C@]1(OC(C)=O)CO[C@@H]1C[C@@H]2O,·,·,·,25%,-3.2%
COc1ccc(CCn2nnnc2C(CC(C)C)N2CCC(C(N)=O)CC2)cc1OC (stereo not given),1.8e-08,i,i,·,-1.1%
Cn1cnnc1SCC(=O)c1ccc2c(c1)CCCC2,·,·,·,3%,0.9%
CC1(C(=O)CSc2nc3ccccc3[nH]2)CCC(=O)O1 (stereo not given),1e-09,i,i,·,·
NC(=O)C[C@H](N)C(N)=O,1.1e-08,i,i,-9%[11.4 µM],-5.7%[11.5 µM]
O=C(CCCN1CCN(c2ccccn2)CC1)c1ccc(F)cc1,3.2e-08,i,i,10%[25.6 µM],-3.7%
Cc1c2c(nc3ccccc13)OCC2,·,·,·,12%,1.7%
O=C(O)CCc1ccc(-c2cccs2)n1NC(=O)c1ccc(O)cc1,1e-09,i,i,5%,-2.0%
CN(Cc1cccs1)C(=O)COc1ccc(-c2nnco2)cc1,2.1e-08,i,i,?,-0.1%
c1ccc(CNc2ncnc3nc[nH]c23)cc1,2.8e-08,i,i,·,0.2%[25.7 µM]
O=C1NCC(COCc2ccccc2)O1 (stereo not given),·,·,·,3%,0.6%
CC(=O)c1ccc(N2CCN(C(=O)C3(S(=O)(=O)c4ccc(Cl)cc4)CC3)CC2)cc1,1e-09,i,i,13%,2.0%
N#Cc1ccc(CN2CCCC3(CCN(C(=O)c4cc(C(F)(F)F)cc(C(F)(F)F)c4)CC3)C2)cc1,1e-09,i,i,8%,0.0%
CN(C)CCN(Cc1ccccc1)S(=O)(=O)c1cccc2cccnc12,·,·,·,14%,-2.3%
COCCn1c(C)cc(C(=O)CSc2n[nH]c(N)n2)c1C,4.4e-09,i,i,-13%,1.0%
COC(=O)[C@@]1(Cc2ccccc2)[C@H]2c3cc(C(=O)N(C)C)n(Cc4cc(F)c(F)c(F)c4)c3C[C@H]2CN1C(=O)c1ccccc1,·,·,·,?,-0.9%
CCN(CC)CCCC1(CN)OCCc2ccccc21 (stereo not given),9e-08,i,i,·,·
COn1c(SCC(=O)N(C)C)nc2ccccc2c1=O,1.5e-08,i,i,8%,-0.8%
O=c1cc(-c2ccccc2)nc2nc(CCc3ccccc3)[nH]n12,3.3e-08,i,i,-8%,0.6%
NCC(=O)[C@@H](O)[C@H](O)[C@H](O)CO,2.7e-09,i,i,4%[11.4 µM],4.5%[11.5 µM]
C=CC1=C[C@@H](O)C2OC2C12OCCCO2 (stereo not given in full),·,·,·,-1%[11.4 µM],4.1%[11.5 µM]
CCN(CCNS(=O)(=O)c1ccc2c(c1)oc(=O)n2C)c1ccccc1,·,·,·,1%,2.5%
COC(=O)c1c(NC(=O)CSc2nnnn2-c2ccc3c(c2)OCO3)sc(C)c1C,3e-09,i,i,14%,0.3%
CC(NC(=O)c1ccco1)C(=O)OCc1cccc(Cl)c1 (stereo not given),3.8e-08,i,i,10%,-1.0%
CC(=O)Nc1cc(NC(=O)CCCC(=O)O)ccc1Cl,·,·,·,2%,0.0%
Cc1cc(N(C)C)cc(C)[n+]1[O-],·,·,·,?,0.0%
O=C(O)C1CCCCC1C(=O)NCCc1c[nH]c2ccccc12 (stereo not given),2.8e-08,i,i,6%,-0.2%
CC(C)CCOc1cccc(OCC(=O)N(C)C2CCS(=O)(=O)C2)c1 (stereo not given),2.1e-08,i,i,8%,-0.1%
CNC(=O)c1cc(S(=O)(=O)N(C)C)ccc1Cl,4.7e-09,i,i,2%,-1.9%
NCCSc1nc(-c2ccccc2)c(-c2ccccc2)o1,1e-09,i,i,1%[11.4 µM],-1.4%[11.5 µM]

# Continued.
SMILES,A647 fluor,Resorufin fluor,A488 autofl,TSHR agonist,AID923
COc1ccc(Cc2nnc(SCC(=O)c3ccccc3)o2)cc1,1.1e-08,i,i,18%,0.5%
C=C(C)Cc1c(C)nc(-c2ccccc2)[nH]c1=O,·,·,·,-9%,4.4%
COc1ccc(C(=O)OCCNC(=O)c2c(Cl)nc3ccccn23)cc1,2.4e-09,i,i,25%,-1.3%
COCCN1Cc2cccc(C(=O)Nc3cccc(C)c3C)c2C1=O,2.3e-08,i,i,1%,1.4%
O=C(c1ccc(S(=O)(=O)N2CCCCCC2)cc1)N1CCN(c2ccccn2)CC1,1e-09,i,i,8%,-1.5%
c1cn(CCCNc2ncnc3sc4c(c23)CCC4)cn1,·,·,·,7%,3.5%
CCN(c1ccccc1)c1cc(C)nc2ncnn12,·,·,·,12%,-0.9%
Cc1csc2nc(CNC(=O)c3cccc(C(F)(F)F)c3)cn12,2e-08,i,i,7%[11.4 µM],0.0%
CCC(=O)N(Cc1cc2cc(OC)ccc2[nH]c1=O)c1ccccc1C,9.7e-09,i,i,?,-0.7%
CO[C@@H]1COC(=O)C/C=C\[C@H](C)[C@H](OC)COC(=O)[C@H](C)NC(=O)C/C=C\[C@H]1C,·,·,·,-2%[11.4 µM],0.7%[11.5 µM]
c1ccc(-c2ccccn2)nc1,1e-09,i,i,6%&1%,-0.1%&0.1%
CCOC(=O)c1ccc(NC(=O)C2CC2)cc1,3.3e-09,i,i,-6%,-0.8%
CC(C)NC(=O)C1CCN(C(=O)c2cc3sccc3n2Cc2ccc(F)cc2)CC1,1e-09,i,i,·,0.3%
COc1cccc(Cn2c(=O)c(C)nc3cnc(N4CCNCC4)nc32)c1,3.5e-09,i,i,?,5.8%
CC(C)(C)c1nnc2sc(SCC(=O)c3ccccc3)nn2c1=O,5e-09,i,i,·,·
CCn1nnnc1SCC(=O)c1cc(OC)ccc1OC,2.6e-09,i,i,2%,-1.0%
CC(C)[C@@H](OCc1ccccc1)[C@H](C)/C=N\O[C@@H](C)c1cn([C@@H]2COC[C@@H]2O)nn1,·,·,·,5%[11.4 µM],0.9%[11.5 µM]
Cc1ccc(S(=O)(=O)Nc2ccc3c(c2)ncn3C(C)(C)C)cc1,·,·,·,4%,-1.7%
O=C1Nc2ccc(NS(=O)(=O)c3cccs3)c3cccc1c23,8.8e-09,i,i,1%,2.5%
O=C(NCc1cccnc1)c1cc(S(=O)(=O)N2CCCCC2)ccc1Cl,3.5e-08,i,i,6%,0.7%
C/C(CCN1CCc2nc(-c3ccccc3)c(-c3ccccc3)cc2C1)=N\O[C@@H](C)CN1CCCCc2nc(C)c(C)cc21,·,·,·,4%[11.4 µM],4.4%[11.5 µM]
COc1ccccc1CNc1ncnc2nc[nH]c12,·,·,·,?,5.0%
O=C(NCCc1ccncc1)Nc1ccccc1Cl,3.4e-08,i,i,2%,-2.2%
CC1CCN(c2nc3ccccc3nc2C(C#N)C(=O)NC2CCCCC2)CC1 (stereo not given),1.9e-09,i,i,11%,17%
CCOc1nc(C)ccc1-c1noc(C)n1,2.7e-08,i,i,2%,-0.4%
COc1cc(C2NC(=O)NC(O)(C(F)(F)F)C2C(C)=O)cc(OC)c1OC (stereo not given),1e-09,i,i,-2%,1.0%
CCc1cc(C(=O)Cc2ccc(F)cc2)c(O)cc1O,·,·,·,6%,-0.5%
COc1ccc(-c2nnc(SC)n2C)cc1,1e-09,i,i,-1%,1.4%
CCC(=O)NC1=C(C#N)C2(CCCC2)Cc2ccccc21,2.4e-08,i,i,5%,0.2%
Cc1nc2ncnn2c(N2CCC(C(=O)NC3CCCC3)CC2)c1Cc1ccccc1,2.7e-08,i,i,10%,-1.1%
CCOC(=O)CSc1nnc(Cn2nnc(-c3ccccc3)n2)n1CC,1e-09,i,i,-1%,-1.0%
Cn1nc(C(=O)N2CCOCC2)c2ccccc2c1=O,2.9e-08,i,i,-6%,0.0%
COc1ccc(C(C)(C)C)cc1NC(=O)c1ccoc1C,2.2e-08,i,i,5%,-1.3%
Cc1ccc(-n2ncc3c2ncn2nc(-c4ccco4)nc32)c(C)c1,1.4e-08,i,i,-1%,1.7%
C[C@@H](SCc1ccccc1)C(=O)O,3.1e-08,i,i,2%[11.4 µM],0.9%[11.5 µM]
COC(=O)c1cc(=O)n(Cc2ccc3c(c2)OCO3)c(=Nc2ccccc2)s1,·,·,·,10%,-1.5%
CC1CCCCN1C(=O)CSc1nnc(-c2cccnc2)n1C1CCCCC1 (stereo not given),4.5e-09,i,i,1%,-0.3%
O=S(=O)(c1ccccc1)N1CCC2(CC1)CN(c1ncccn1)C2,1e-09,i,i,-3%,3.7%

# Source: PubChem BioAssay (National Center for Advancing Translational Sciences (NCATS))
